STK33 inh – blocks human STK33 kinase activity | Q9BYT3 | purified STK33, MBP phosphorylation, ADP-Glo luminescence | inhibition, % at 10 µM | actives 0.073% (n = 320,000) | AID 2661;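 active = inhibition at or above 25%, using the most active replicate where run in duplicate; inactive = inhibition below 25%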
Target sequence (Q9BYT3 whole entry, looked up): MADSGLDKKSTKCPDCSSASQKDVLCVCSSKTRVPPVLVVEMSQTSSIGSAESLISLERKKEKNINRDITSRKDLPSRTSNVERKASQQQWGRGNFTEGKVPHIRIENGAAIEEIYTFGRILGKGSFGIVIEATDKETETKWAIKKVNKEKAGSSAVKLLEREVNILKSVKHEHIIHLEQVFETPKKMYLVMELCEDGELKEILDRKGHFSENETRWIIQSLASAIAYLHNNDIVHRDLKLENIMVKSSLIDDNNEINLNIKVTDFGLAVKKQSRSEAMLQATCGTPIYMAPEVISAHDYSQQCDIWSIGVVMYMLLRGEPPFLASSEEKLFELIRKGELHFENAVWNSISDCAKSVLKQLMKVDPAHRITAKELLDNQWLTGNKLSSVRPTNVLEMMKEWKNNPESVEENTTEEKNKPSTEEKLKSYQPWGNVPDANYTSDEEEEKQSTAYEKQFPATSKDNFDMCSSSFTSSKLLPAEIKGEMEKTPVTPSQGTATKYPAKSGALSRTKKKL
Starred values were filed as active, the others as inactive.

Screening CCN(CCO)c1cc(Cl)nc(SC)n1 returned STK33 inh 0.2.
Screening COc1ccc(NC2CCCN(C(=O)c3cccnc3SC)C2)cc1OC (configuration not stated) returned STK33 inh 5.1.
CN(CC(=O)Nc1cccc2ccccc12)C(=O)c1cccc(S(=O)(=O)N(C)C)c1 was read as STK33 inh 1.3.
`COc1ccc(-c2nc3ncccn3c2Br)cc1` gave STK33 inh 0.6.
`CC(=O)/C(=C/N(C)C)Sc1ccc(C)cc1` gave STK33 inh 1.1.
For O=C(CSc1nnc(NC(=O)CN2CCOCC2)s1)Nc1ccccc1 the results were STK33 inh -1.5.
For CSCC[C@H](Nc1ncnc2sc(C)c(C)c12)C(=O)O the results were STK33 inh 0.7.
COc1cc(/C=C2\C(=N)N3N=C(S(C)(=O)=O)SC3=NC2=O)ccc1OC(=O)c1cccs1 was read as STK33 inh 1.5.
Screening O=C1CCc2cc(NS(=O)(=O)c3ccccc3)cc3c2N1CC3 returned STK33 inh -0.1.
For COc1cccc2cc(-c3nc4ccccc4[nH]3)c(=O)oc12 the results were STK33 inh 0.0.
For CCn1c(=N)n(CC(=O)C23CC4CC(CC(C4)C2)C3)c2ccccc21 the results were STK33 inh -1.4.
For COc1cccc(NC(=O)Cn2nnc(C(=O)NCc3cccs3)c2N)c1 the results were STK33 inh 0.1.
CCOc1cc(/C=N/NS(=O)(=O)c2ccc(OC)cc2)ccc1OCCN1CCOCC1 was read as STK33 inh 0.6.
CC1(C)CC(C2N3CC4(C)CN2CC(C)(C3)C4=O)CCO1 (configuration not stated) was read as STK33 inh 1.1.
Screening COc1ccc(/C(N)=N/OC(=O)Cc2ccc(OC)c(OC)c2)cc1 returned STK33 inh -2.1.
For OCCN1CCN(c2nc(-c3ccccc3)nc3c2oc2ccccc23)CC1 the results were STK33 inh -0.6.
For CC(c1ccco1)N(C(=O)c1ccc(S(=O)(=O)N2CCCCC2)cc1)c1ccccn1 (configuration not stated) the results were STK33 inh -1.7.
Screening CC(C)NC(=O)NC(=O)COC(=O)c1c2c(nc3ccccc13)CCC2 returned STK33 inh -1.2.
Screening CCC(C)NC(=O)C1c2ccccc2C(=O)N(c2ccc(OC)cc2)C1c1ccc(OC)cc1 (configuration not stated) returned STK33 inh 0.7.
`O=C(Nc1cccc(Cl)c1)c1ccc(=O)[nH]n1` gave STK33 inh -0.3.
For CC(=O)c1cc(F)c(N2CCN(CCC#N)CC2)cc1C the results were STK33 inh -1.1.
O=C(/C=C/c1ccc2c(c1)OCO2)NCC1CCCO1 (configuration not stated) was read as STK33 inh 1.5.
For Cc1cc(C)cc(-n2ncc3c2CCCC3NC(=O)c2ccccc2N2CCOCC2)c1 (configuration not stated) the results were STK33 inh -0.2.
`Cc1ccccc1C(=O)N1CCN(c2ccc(NC(=O)c3cccs3)cc2)CC1` gave STK33 inh -1.4.
Cc1ccc(C(=O)/C=C/C(=O)c2ccc(C)cc2)cc1 was read as STK33 inh 3.9.
`Cc1c(C)c2ccc(OCC(=O)NC(Cc3c[nH]c4ccc(O)cc34)C(=O)O)c(C)c2oc1=O` (configuration not stated) gave STK33 inh -1.6.
For Cc1nnc(NC(=O)c2ccc(-c3ccc([N+](=O)[O-])cc3)o2)s1 the results were STK33 inh 1.7.
For Nn1c(SCc2ccc(F)cc2)nnc1-c1ccccn1 the results were STK33 inh 8.8.
For CC(=O)c1cc2c(cc1NC(=O)CN1CCC(Cc3ccccc3)CC1)OCO2 the results were STK33 inh -1.1.
Screening O=C(Cc1ccccc1F)Nc1ccc(Cl)nc1 returned STK33 inh 0.4.
`CN(CC(=O)N1CCOCC1)S(=O)(=O)c1ccc2ccccc2c1` gave STK33 inh -2.3.
`O=C(COCc1ccccc1)N[C@@H](Cc1ccc(O)cc1)C(=O)O` gave STK33 inh -0.3.
CC(=O)N1CCC(N(CCN2CCOCC2)C(=S)Nc2cc(C)ccc2C)CC1 was read as STK33 inh 0.6.
`CCN(CC)S(=O)(=O)c1ccc2oc(Nc3ccc(OC)cc3)nc2c1` gave STK33 inh 0.3.
N=c1c(C(=O)NC2CCCC2)cc2c(=O)n3ccccc3nc2n1CCCN1CCOCC1 was read as STK33 inh 0.1.
Screening O=c1[nH]c(CN2CCN(C/C=C/c3ccccc3)CC2)nc2ccccc12 returned STK33 inh 0.3.
For O=C(COC(=O)c1ccc(F)cc1F)NCCNC(=O)COC(=O)c1ccc(F)cc1F the results were STK33 inh -0.5.
CCOc1ccc2c(c1)N(C(=O)CN1C(=O)CCC1=O)C(C)(C)C=C2C was read as STK33 inh -0.6.
Screening Cc1ccc(Nc2ncnc3sc(C)c(C)c23)cc1C returned STK33 inh -2.3.
Cc1c(C(N)=O)sc2ncn(CC(=O)NCCc3ccccc3)c(=O)c12 was read as STK33 inh -0.1.
For CCOC(=O)C1=C(CS(=O)(=O)c2ccc(F)cc2)NC(=O)NC1c1ccc(O)c(O)c1 (configuration not stated) the results were STK33 inh 0.2.
CCC1(CC)C(=O)N(C)C(=O)NC1=Nc1ccccc1 was read as STK33 inh -0.9.
`CC/C(=N\NC(=O)c1csc(C)c1C)c1cccs1` gave STK33 inh -0.1.
Cc1nnc(SCC(=O)Nc2nc(C(C)(C)C)cs2)s1 was read as STK33 inh 0.0.
For COc1ccc(CN2C(=O)NC3(CCCCC3)C2=O)cc1F the results were STK33 inh -0.4.
`CN(C(=O)c1ccc(=O)n(Cc2ccc(Cl)cc2)c1)c1ccccc1` gave STK33 inh -1.6.
For CCOCCCN(Cc1cc2cc(C)cc(C)c2[nH]c1=O)C(=O)N(CC)CC the results were STK33 inh 0.6.
`Cc1ccc(N(C)S(=O)(=O)c2cccc(C(=O)Nc3nnc(C4CC4)s3)c2)cc1` gave STK33 inh 0.4.
O=C(NCc1ccco1)c1nnc(Cc2ccc(Cl)cc2)o1 was read as STK33 inh -0.2.
CCNC(=S)N/N=C/c1ccccc1[N+](=O)[O-] was read as STK33 inh -0.4.
COc1ccccc1N(CC(N)=O)S(=O)(=O)c1ccc(C)cc1 was read as STK33 inh 0.8.
`COc1ccc(S(=O)(=O)N2CCN(C(=O)c3c(C)nn(-c4ccccc4)c3Cl)CC2)cc1` gave STK33 inh -0.8.
Screening CC(C)(C)C(=O)Nc1nnc(-c2ccncc2)o1 returned STK33 inh 0.1.
CC(C)c1ccc(N2C(=O)CSC23C(=O)N2CCCc4cccc3c42)cc1 (configuration not stated) was read as STK33 inh 0.1.
`CCn1c(SCC(=O)Nc2cc(C)on2)nnc1-c1ccco1` gave STK33 inh -1.9.
COc1cccc(C(=O)NN2CC(O)=C(c3nc(C)cs3)C2=N)c1 was read as STK33 inh -0.1.
COc1ccccc1CNC(=O)C(=O)NCCC1CCCCN1S(=O)(=O)c1cccs1 (configuration not stated) was read as STK33 inh -1.2.
`Cc1ccc(CSCCNC(=O)CSCc2ccc([N+](=O)[O-])cc2)cc1` gave STK33 inh -0.6.
For O=C(CN1CCCC1)Nc1cccc(Cl)c1 the results were STK33 inh 5.5.
`Cc1ccc(Nc2nc(NCCO)c3ccccc3n2)cc1C` gave STK33 inh -20.

4 entries drawn at random from those above:
COc1cccc(C(=O)NN2CC(O)=C(c3nc(C)cs3)C2=N)c1 was read as STK33 inh -0.1.
For O=C(COC(=O)c1ccc(F)cc1F)NCCNC(=O)COC(=O)c1ccc(F)cc1F the results were STK33 inh -0.5.
Screening CC(C)NC(=O)NC(=O)COC(=O)c1c2c(nc3ccccc13)CCC2 returned STK33 inh -1.2.
`CN(C(=O)c1ccc(=O)n(Cc2ccc(Cl)cc2)c1)c1ccccc1` gave STK33 inh -1.6.

Next entries:
Screening CC(C)(C)C(=O)N(Cc1ccc(Cl)cc1)Cc1cccnc1 returned STK33 inh -1.7.
For COc1cc(C(=O)NCc2nnc(SCC(=O)N3CCCC3)o2)cc(OC)c1OC the results were STK33 inh -1.7.
Screening Cn1c2ccccc2c2c(C(=O)NCCCN3CCCC3=O)cn(C3CCCCC3)c(=O)c21 returned STK33 inh -2.0.
Screening COc1ccc(C2c3ccc(O)cc3Oc3ncn(Cc4ccco4)c(=N)c32)cc1 (configuration not stated) returned STK33 inh -1.0.
Screening Cc1cc(/C=N/NC(=O)C(O)(c2ccccc2)c2ccccc2)c(C)n1-c1ccccc1 returned STK33 inh 0.2.
For Cc1cc(C(=O)COC(=O)c2ccccc2O)c(C)n1Cc1cccs1 the results were STK33 inh -1.3.
`O=C(CS(=O)(=O)Cc1ccccc1)Nc1nc2ccccc2s1` gave STK33 inh 1.0.
Screening OCn1ncn(-c2ccccc2)c1=S returned STK33 inh -2.9.
For CC(C)OCCCNC(=O)c1cc(-c2cccnc2)nc2ccccc12 the results were STK33 inh -0.2.
For COc1ccccc1CCNC(=O)c1csc2c1CCCC2 the results were STK33 inh -1.9.
For CC1Cc2ccccc2N1C(=O)COC(=O)C1=COCCO1 (configuration not stated) the results were STK33 inh -4.2.
Screening Cc1ccc(NC2(C(F)(F)F)N=C(c3ccccc3)NC2=O)nc1 (configuration not stated) returned STK33 inh -0.9.
For COc1ccc(C(=O)Nc2ccc3c4c(cccc24)CC3)cc1 the results were STK33 inh -1.7.
For Cc1onc(-c2ccccc2)c1CNC(=O)Nc1ccc(C(F)(F)F)cc1 the results were STK33 inh -1.5.
`C=CCn1c(CCNC(=O)c2ccccc2F)nnc1SCC(=O)Nc1ccccc1F` gave STK33 inh -0.1.
`CC(NCC1(N2CCOCC2)CCCCC1)C(=O)N1CCc2ccccc21` (configuration not stated) gave STK33 inh -0.3.
Screening CC(=O)C1C(c2ccco2)c2c(noc2C)CC1(C)O (configuration not stated) returned STK33 inh -2.0.
For CCCCNC(=O)N1CCCC(N(C)CCc2ccc(OC)c(OC)c2)C1 (configuration not stated) the results were STK33 inh -1.4.
For CCC(C)(C)NC(=O)CN(CC1CCCO1)C(=O)CCC(=O)Nc1nccs1 (configuration not stated) the results were STK33 inh 0.1.
Screening Cc1cccc(NC(=O)CC2SC(=NC3CCCCC3)NC2=O)c1 (configuration not stated) returned STK33 inh 0.4.

In the list so far, these contain an NH in an aromatic ring.
For COc1cccc2cc(-c3nc4ccccc4[nH]3)c(=O)oc12 the results were STK33 inh 0.0.
`O=C(Nc1cccc(Cl)c1)c1ccc(=O)[nH]n1` gave STK33 inh -0.3.
`Cc1c(C)c2ccc(OCC(=O)NC(Cc3c[nH]c4ccc(O)cc34)C(=O)O)c(C)c2oc1=O` (configuration not stated) gave STK33 inh -1.6.
Screening O=c1[nH]c(CN2CCN(C/C=C/c3ccccc3)CC2)nc2ccccc12 returned STK33 inh 0.3.
For CCOCCCN(Cc1cc2cc(C)cc(C)c2[nH]c1=O)C(=O)N(CC)CC the results were STK33 inh 0.6.

(more compounds)
`COc1ccc(N2CCN(Cc3cc(=O)oc4cc(-c5ccccc5)c(O)cc34)CC2)cc1` gave STK33 inh -0.9.
CC(C)CCC1(CCNC(=O)c2cccs2)CCOC(C)(C)C1 (configuration not stated) was read as STK33 inh -1.2.
CCOC(=O)C(=O)Nc1nc(-c2ccccc2)c(-c2ccccc2)o1 was read as STK33 inh -0.8.
Screening Cc1ccc(SCC(=O)OC(C)C(=O)NC2(C#N)CCCCC2)cc1 (configuration not stated) returned STK33 inh -0.6.
O=C(NC1CCCc2ccccc21)c1ccccc1 (configuration not stated) was read as STK33 inh -1.8.
Screening OC(CNCc1ccc(F)cc1)(c1ccc(F)cc1)c1ccc(F)cc1 returned STK33 inh -0.7.
Cc1ccc2c(C)ccc(O)c2n1 was read as STK33 inh 0.2.
`CC(C)c1ccccc1NC(=O)COC(=O)CNC(=O)c1ccc(Br)cc1` gave STK33 inh -0.9.
`CCOc1ccc(N2C(=O)CC(N(O)c3ccccc3)C2=O)cc1` (configuration not stated) gave STK33 inh 1.4.
`C/C(=N\NC(N)=O)c1ccccc1` gave STK33 inh -0.9.
`O=C(Cc1ccccc1)Nc1nccs1` gave STK33 inh 0.1.
COc1cccc(C2/C(=C(\O)c3ccc(OC)c(OC)c3)C(=O)C(=O)N2c2cc(C)on2)c1 (configuration not stated) was read as STK33 inh -1.3.
For Cc1ccnc2nc(C(=O)NCc3cccs3)nn12 the results were STK33 inh -1.7.
Screening Cc1cc(C)cc(NC(=O)Cn2cc3c(n2)CCCCC3)c1 returned STK33 inh -1.6.
For CCOc1ccc(NC(=S)NS(=O)(=O)c2cc(Br)ccc2OCC)cc1 the results were STK33 inh -0.4.
C=CCn1c(SCC(=O)Nc2ccc(F)cc2)nc2ccccc2c1=O was read as STK33 inh -1.3.
`CCOC(=O)c1c(-c2ccccc2)csc1NC(=O)C(C)NCc1ccco1` (configuration not stated) gave STK33 inh -3.0.
For O=[N+]([O-])c1cccc(-c2cnc3ccccc3n2)c1 the results were STK33 inh -0.3.
Screening CCn1nnc(NC(=O)c2ccc(-c3ccc(Cl)cc3)o2)n1 returned STK33 inh -1.3.
`O=C(OCCN=C1NS(=O)(=O)c2ccccc21)C1CC(=O)N(c2ccc(Cl)cc2)C1` (configuration not stated) gave STK33 inh -0.2.

Arranged by heavy-atom count (lowest first): some entries from above
`O=C(Cc1ccccc1)Nc1nccs1` gave STK33 inh 0.1.
For O=[N+]([O-])c1cccc(-c2cnc3ccccc3n2)c1 the results were STK33 inh -0.3.
Screening Cc1cc(C)cc(NC(=O)Cn2cc3c(n2)CCCCC3)c1 returned STK33 inh -1.6.
For CCOc1ccc(NC(=S)NS(=O)(=O)c2cc(Br)ccc2OCC)cc1 the results were STK33 inh -0.4.
`CCOC(=O)c1c(-c2ccccc2)csc1NC(=O)C(C)NCc1ccco1` (configuration not stated) gave STK33 inh -3.0.
`O=C(OCCN=C1NS(=O)(=O)c2ccccc21)C1CC(=O)N(c2ccc(Cl)cc2)C1` (configuration not stated) gave STK33 inh -0.2.

Screening data: PubChem BioAssay, Broad Institute

Not all compounds are listed; most or all hits stand in other tables.
